Menin MLL FP FL = qHTS Assay for Inhibitors Targeting the Menin-MLL Interaction in MLL Related Leukemias: Competition With Fluorescein Labeled MLL-derived Peptide; Fluorescence polarization, fluorescein-MLL peptide displacement from menin; FP activity change, % at 61.4 µM; 290,000 tested, under 10 active; inconclusive = falling polarisation curve, or a change in total fluorescence; inactive = total fluorescence flat and polarisation flat or rising; no compound was filed as active; the % refers to the polarisation; negative = inhibition;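 further: % of control where 0% means no effect; inhibitors lower the polarisation; unlabelled MLL peptide was the positive control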
TRPML1 ag = qHTS for Agonists of the Human Mucolipin Transient Receptor Potential 1 (TRPML1) | Mucolipin-1 (Homo sapiens), Q9GZU1 | TRPML1-expressing cells, Ca2+ dye fluorescence, FDSS; host cell line not named in the record; reference of the full effect not given here | activation, % (test concentration not listed) | 410,000 tested, 0.12% active | AID 624414, 2012; in the data active = activation above about 50%; inconclusive = about 30% to 50%; inactive = below about 30%; further: 0% is about no effect; the text of the record puts the active cut at 80%
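Kinetic FDSS Ca2+ read in Tet-induced TRPML1-DL cells (ABD Ca8 dye plus quencher, 45-90 min RT loading): baseline, then compound, then 110 s agonist window; EC80 agonist 54-4 at 4uM final added afterwards for a 110 s antagonist window.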
TRPML1 blocker = qHTS for Inhibitors of the Human Mucolipin Transient Receptor Potential 1 (TRPML1) | Mucolipin-1 (Homo sapiens), Q9GZU1 | AID 624415, 2012 | activity change, negative = inhibition, % (no concentration beside the values) | TRPML1-inducible cells, Ca2+ dye fluorescence, FDSS; active compounds read low; inhibition of EC80 agonist-evoked calcium signal | 390,000 tested, 0.02% active; in the data active means activity change below about -50%; inconclusive means about -30% to -50%; inactive means above about -30%;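 further: stimulus is agonist 54-4 at its EC80 concentration; on the % scale 0 is the no-effect control and ±100 the full control effect; compound concentration not given in the record; the text of the record puts the active cut at -80%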
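Tet-induced TRPML1-DL cells loaded with Ca8 no-wash calcium dye were read kinetically on FDSS. Compound addition was followed by EC80 agonist 54-4 (4 uM final); inhibition was read over 110 s.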
PINK1 modulator = A Quantitative High throughput Screen to Identify Chemical Modulators of PINK1 Expression. PINK1 immunofluorescence, high-content cytometry, 24 h. Potency, µM (doses to about 76.6 µM), for inactives: top-dose activation (PINK1 increase), most hits filed as activators. 410,000 tested, 0.2% active. AID 624263, 2012; active = well fitted activation curve with a large enough effect; inconclusive = small, poorly fitted or top-dose-only effect; inactive = flat fitted curve, though single readings scatter; cell line not stated here;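 further: potency means the concentration at half of the fitted maximal effect; % of control where 0% means no effect; nearly all actives have a fitted effect of over 65% in size; a mitochondrial uncoupler was the plate control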
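Decision-based qHTS: stable cells, 24 h exposure to five compound concentrations, CCCP as control. Fixed cells stained for PINK1 plus nuclear, mitochondrial and cell markers, cytometer read.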
TRPV1 PAM = HTS Assay for Compounds that Act as Potentiators of the Vanilloid Receptor 1 | potentiation, % at 8.33 µM | Transient receptor potential cation channel subfamily V member 1 (Homo sapiens), Q8NER1 | 320,000 tested, 0.02% active | TRPV1-expressing cells, Fluo-8 calcium influx, capsaicin EC20 potentiation; host cell line not named in the record; control for the full effect not named in the record | AID 540277, 2011; active means potentiation above 80%; inconclusive means 30% to 80%; inactive means below 30%; further: 0% is about no effect
Target sequence (Q8NER1 whole entry, looked up): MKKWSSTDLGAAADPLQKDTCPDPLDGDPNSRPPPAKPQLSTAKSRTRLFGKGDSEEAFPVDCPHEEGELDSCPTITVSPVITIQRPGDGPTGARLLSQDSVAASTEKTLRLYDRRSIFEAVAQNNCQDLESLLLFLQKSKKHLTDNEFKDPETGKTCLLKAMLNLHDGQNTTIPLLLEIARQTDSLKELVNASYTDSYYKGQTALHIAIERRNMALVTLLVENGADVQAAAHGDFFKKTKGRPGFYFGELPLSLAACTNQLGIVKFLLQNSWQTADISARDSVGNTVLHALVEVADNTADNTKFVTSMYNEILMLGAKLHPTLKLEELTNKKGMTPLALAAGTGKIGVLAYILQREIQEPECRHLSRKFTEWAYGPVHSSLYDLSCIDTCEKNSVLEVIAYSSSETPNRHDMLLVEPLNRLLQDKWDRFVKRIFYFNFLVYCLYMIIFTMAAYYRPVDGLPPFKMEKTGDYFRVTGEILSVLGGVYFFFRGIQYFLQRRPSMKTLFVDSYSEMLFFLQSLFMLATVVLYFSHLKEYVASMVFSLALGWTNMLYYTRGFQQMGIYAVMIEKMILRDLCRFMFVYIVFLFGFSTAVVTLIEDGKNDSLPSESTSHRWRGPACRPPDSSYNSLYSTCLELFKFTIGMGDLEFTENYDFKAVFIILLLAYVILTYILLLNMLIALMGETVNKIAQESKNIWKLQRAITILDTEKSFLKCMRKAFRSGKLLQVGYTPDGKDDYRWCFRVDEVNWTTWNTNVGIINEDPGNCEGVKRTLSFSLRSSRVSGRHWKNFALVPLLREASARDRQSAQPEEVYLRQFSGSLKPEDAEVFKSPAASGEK
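Cells expressing TRPV1 were dye-loaded with Fluo-8 and read kinetically: 10 s baseline, 3 min after compound (agonist portion), then 2 min after EC20 capsaicin (allosteric enhancer portion). Calcium-bound dye fluorescence at 480/520 nm.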
Sfp inh = qHTS Assay for Inhibitors of Bacillus subtilis Sfp phosphopantetheinyl transferase (PPTase). 4'-phosphopantetheinyl transferase ffp (Bacillus subtilis), Q9F4F7. Biochemical Sfp PPTase activity, qHTS. Potency, µM, for the others: max response, negative = inhibition, most hits filed as inhibitors. 310,000 tested, 3.5% active; active means well fitted inhibition curve with a large enough effect; inconclusive means small, poorly fitted or top-dose-only effect, or another doubt; inactive means no such curve, though single readings can be large or run the other way;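 further: the enzyme is Sfp with the accession as filed and its product quenches rhodamine fluorescence; potency means the concentration at half of the fitted maximal effect; 0% = enzyme reaction without inhibitor and -100% = no enzyme wells; top concentration of the series not given in the record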
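After 15 min at room temperature with compound, 15 nM Sfp received 5 uM rhodamine-CoA plus 12.5 uM BHQ-2-ybbR (50 mM Hepes pH 7.6, 10 mM MgCl2). Rate came from the fluorescence difference over 30 min, ex 525/em 598 nm.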
ClpP mod = qHTS Assay for Activators of ClpP; purified B. subtilis ClpP, FRET peptide cleavage, 20 min; ATP-dependent Clp protease proteolytic subunit (Bacillus subtilis (strain 168)), P80244; 340,000 tested, 1.9% active; Potency, µM (top dose mostly 57.5 µM), without a hit: at the highest dose activity change, negative = active; active = well fitted falling curve with a large enough effect; inconclusive = small, poorly fitted or top-dose-only effect; inactive = no such curve, though single readings can be large or run the other way; further: potency means the concentration at half of the fitted maximal effect; the source files actives as falling curves though it sought activators and does not explain the sign; nearly all actives have a fitted effect of over 65% in size; many hits overshoot -100%
Target sequence (P80244 whole entry, looked up): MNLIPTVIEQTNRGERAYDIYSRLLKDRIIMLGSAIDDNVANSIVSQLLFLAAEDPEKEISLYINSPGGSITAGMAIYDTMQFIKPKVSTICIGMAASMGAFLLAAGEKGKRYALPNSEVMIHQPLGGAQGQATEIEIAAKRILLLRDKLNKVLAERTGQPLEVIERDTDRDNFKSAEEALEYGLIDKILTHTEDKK
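Buffer: 100 mM Tris/HCl pH8, 100 mM KCl, 0.05% low protease BSA, 2.5% glycerol, 0.01% Tween-20. ClpP 10 microg/mL final; 20 min RT; delta FRET normalized to ADEP and DMSO controls.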
The depositor's hits bear a star; ? = inconclusive; / = no result given; [ ] = another dose, or the depositor's remark.

Results follow in this order: Menin MLL FP FL | TRPML1 ag | TRPML1 blocker | PINK1 modulator | TRPV1 PAM | Sfp inh | ClpP mod
1. CCC1Oc2ccccc2N(CC(=O)Nc2ccc(OC)cc2OC)C1=O (configuration not stated)
 : -0.3 | 0.0 | -9 | 18%[38.3 µM] | 7 | 1% | -2.4%
2. COc1cc(OC)c(N(C)C(=O)Cn2ncc3c(=O)oc4ccccc4c32)cc1Cl
 : / | -0.3 | -11 | 1.5% | / | / | -1.9%
3. COc1ccc2c(c1)CC[C@@H]1[C@@H]2CC[C@]2(C)[C@@H](C(C)=O)C[C@@H]12
 : / | 1.2 | 77 | 16% | 12 | / | 1.1%
4. NNC(=S)NC1CCS(=O)(=O)C1 (configuration not stated)
 : 0.4 | -0.2 | 12 | 0.9% | 26 | 8.9µM* | -1.6%
5. CCOc1ccc(C(=O)NCc2nnnn2-c2ccc(C)c(C)c2)cc1OCC
 : / | -0.3 | -15 | 3.6% | / | / | -1.3%
6. O=C1N[C@@H](Cc2ccccc2)C(=O)N2[C@H]1C[C@]1(Br)c3ccccc3N(S(=O)(=O)c3ccccc3)[C@H]21
 : / | -0.5 | 5 | -0.5% | 21 | / | 1.7%
7. CCCCNC(=O)CS(=O)Cc1nc(-c2cccc(C)c2)oc1C (configuration not stated)
 : 1.9 | -0.1 | 15 | 3.1% | / | 18% | -13%
8. Cc1ccc(S(=O)(=O)Nc2cccc(C(=O)NCCCN3CCOCC3)c2)cc1F
 : / | 1.2 | -19 | -1.6% | 2 | / | -3.7%
9. COCCc1nn2c(=O)cc(COC(=O)c3ccc(C(C)(C)C)cc3)nc2s1
 : / | 1.2 | 2 | 4.6% | / | / | -6.4%
10. O=C(NC1CC1)c1ccc2c3c(cccc13)CC2
 : -1.5 | 0.2 | 42 | 3.8% | 10 | -11% | ?
11. COc1cccc(NC(=O)Cn2c(=O)n(Cc3ccccc3)c(=O)c3c4c(sc32)CN(C(C)=O)CC4)c1
 : / | -0.3 | -9 | 0.0% | / | / | 1.4%
12. CCCC(C)NC(=O)CSc1nc(-c2ccccc2)cn1N (configuration not stated)
 : -1.3 | -0.6 | 17 | 2.5% | 3 | 12% | /
13. COc1ccc(CCNC(=O)c2c(O)nc3ccccn3c2=O)cc1
 : / | -1.3 | -10 | 0.1% | / | / | -16%
14. COc1ccc(-c2noc(CN(Cc3nccn3C)C(C)C)n2)cc1
 : 4.8 | 0.2 | 48 | -0.6% | ? | 5% | /
15. COc1cc(C=C2CN(C)C(=O)C2=O)ccc1O
 : / | -0.1 | 28 | -0.7% | / | / | 1.0%
16. Cc1cc(Br)cn2c(Cc3ccsc3)c(C(C)(C)C)nc12
 : / | 3.1 | 25 | 2.2% | / | / | -19%
17. Cc1cccc(N2CCN(C(=O)c3ccc(S(=O)(=O)N(C)c4ccccc4)cc3)CC2)c1C
 : / | -0.2 | 2 | 0.0% | / | / | 1.6%
18. COc1ccc(C(OC(=O)c2ccco2)C(=O)NC(C)(C)C)cc1OC (configuration not stated)
 : / | 1.0 | 15 | -0.9% | / | / | -2.0%
19. COc1cc(C)c(CN2CCN(c3ncccn3)CC2)cc1C
 : / | 0.4 | -7 | 7.9% | / | / | -0.4%
20. N#CCCN(C(=O)COC(=O)c1ccc2c(c1)NC(=O)CS2)c1ccc2c(c1)OCCO2
 : -1.2 | 0.3 | 2 | -3.0% | -3 | 14% | -2.4%
21. Cn1ncc(Br)c1C(=O)NC1C2CC3CC(C2)CC1C3 (configuration not stated)
 : 5.8 | 2.1 | 42 | 1.6% | -11 | -13% | -0.6%
22. CCOC(=O)c1nc(N)c(C(=O)OCC)[nH]1
 : 2.7 | -0.8 | 20 | -0.7% | 7 | 26% | 14µM*
23. CC(=O)Oc1ccc2c(=O)c(Oc3ccccc3[N+](=O)[O-])coc2c1
 : 9.5 | 0.9 | -15 | 0.6% | 5 | -18% | -1.3%
24. CCOC(=O)N1CCN(CC(=O)Nc2cc3c(cc2C(C)=O)OCO3)CC1
 : 0.6 | -0.2 | 8 | 1.3% | 21 | -1% | ?
25. Cc1ccc(-n2c3c(c(O)c(-c4ccccc4)c2=O)C(=O)CC(C)(C)C3)cc1
 : 2.5 | -0.4 | 6 | 3.1% | 1 | -13% | 7.0%
26. Cc1ccc(S(=O)(=O)N(C)CCCC(=O)Nc2ccc(C)cc2C)cc1
 : 2.8 | 2.9 | 26 | 0.4% | -9 | 17% | -0.3%
27. CCOC(=O)c1c(NC(=S)Nc2ccccc2)sc2c1CC(C)(C)SC2
 : 10 | 0.0 | -16 | 4.8% | -2 | -21% | /
28. CC(C)c1ccc(C(=O)COC(=O)C(O)c2ccccc2)cc1 (configuration not stated)
 : / | 2.1 | 18 | 3.4% | / | / | -2.6%
29. O=C(CSc1nnc(-c2ccco2)n1-c1ccccc1)N1CCOCC1
 : -5.8 | 0.9 | 29 | 5.6%[38.3 µM] | -2 | -12% | 0.2%
30. Cc1ccc(NC(=O)Cc2nc(COC(=O)C(C)NS(=O)(=O)c3ccc(C)cc3)cs2)cc1 (configuration not stated)
 : / | 0.2 | 2 | 1.6% | 2 | / | 0.3%
31. CCNC(=S)N=Nc1c(O)[nH]c2ccc([N+](=O)[O-])cc12
 : -0.2 | 2.9 | -3 | 3.0% | -5 | -16% | /
32. CCCCCC(=O)Nc1ccc(C(=O)N/N=C/c2ccc([N+](=O)[O-])cc2)cc1
 : 4.9 | -0.6 | -1 | 3.3% | 3 | 10% | 3.6%
33. Cc1ccc(/C=N/NC(=O)c2nn(C)cc2Cl)cc1
 : -0.3 | 0.3 | 24 | 0.8% | -20 | 8% | -4.5%
34. O=C(NCc1ccc2c(c1)OCO2)c1ccc(=O)[nH]c1
 : 6.8 | 0.2 | 0 | -1.8% | 8 | 14% | -10%
35. O=C(O)Cn1nc(-c2ccccc2)c2ccccc2c1=O
 : -0.9 | 0.3 | -6 | ? | 22 | 20% | -5.1%
36. Cc1cccc(NC(=O)CCS(=O)(=O)c2cc(Br)cc3c2N(C(=O)C2CC2)CC3)c1
 : / | -0.1 | -2 | 2.1% | / | / | -1.2%
37. Cc1cc(C)n(C/C=C/Cn2nc(C)cc2C)n1
 : 3.8 | -0.6 | -5 | -3.0%[38.3 µM] | 0 | 10% | -1.0%
38. COCCN(C(=O)CCC(=O)Nc1nccs1)C(C(=O)NCCC(C)C)c1ccc(OC)cc1 (configuration not stated)
 : -4.5 | 1.5 | -12 | 0.3% | -2 | 18% | /
39. O=S1(=O)N=C2CCCCCN2C(c2ccc(Br)cc2)N1 (configuration not stated)
 : 5.9 | 0.4 | -3 | -0.7% | 14 | 9% | /
40. O=C(NCCCc1ccccc1)c1ccc(Br)o1
 : 1.7 | 1.1 | -9 | -3.4% | -23 | -15% | 0.6%
41. COc1ccc(-c2cnc3c(-c4ccc(F)cc4)cnn3c2N)cc1
 : -0.2 | -0.8 | 0 | -0.1% | 11 | 10% | /
42. Cc1cc(NC2CCCCC2)nc2ccccc12
 : -3.3 | 0.7 | -1 | 15% | -1 | 16% | 4.8%
43. O=C(COc1ccc(-c2nnco2)cc1)Nc1c(Cl)cccc1C(F)(F)F
 : / | -0.1 | 0 | -0.4% | -4 | / | -4.7%
44. C=CCON/C(CCC)=C1\C(=O)C(C(=O)OC)C(C)(C)CC1=NC (configuration not stated)
 : -13 | -0.6 | 1 | 1.2% | -9 | 6% | /
45. Cc1ccc(C)n1-c1ccc(-c2ccnc(N)n2)cc1
 : 8.8 | -0.6 | 1 | 0.5% | 21 | 2% | -1.7%
46. COc1ccc(C(=O)N2CC(=O)Nc3ccc(F)cc3C2c2ccccc2)cc1 (configuration not stated)
 : 0.4 | -0.6 | -1 | 2.2% | -3 | 3% | 0.3%
47. CCOc1ccc(CNC(=O)CCn2nc(C)c3c(C)n(-c4ccccc4)nc3c2=O)cc1
 : / | -0.7 | -21 | -1.4% | / | / | 1.5%
48. C[C@H](CO)N1C[C@H](C)[C@@H](CN(C)S(=O)(=O)c2cccs2)Oc2c(NS(=O)(=O)c3cn(C)cn3)cccc2C1=O
 : / | 0.0 | 10 | 0.2% | / | / | -8.8%
49. O=S(=O)(c1ccc2ccccc2c1)N1CCN(C(=S)Nc2ccc(F)cc2)CC1
 : 10 | 2.9 | 11 | -0.1% | 15 | 20% | -0.7%
50. O=C(Cc1ccc(F)cc1)NCCc1csc(-c2cccc(F)c2)n1
 : / | 2.5 | 25 | 0.5% | / | / | -14%
51. COc1ccccc1NC(=O)CSc1nnnn1Cc1ccccc1
 : -2.4 | 1.2 | 14 | / | 6 | 25% | -7.6%
52. N#CC1=C(N)S[C@@H](C(=O)c2ccc(F)cc2)[C@@H]1c1cccs1
 : 12 | 1.9 | -8 | -1.5% | 6 | ? | -0.4%
53. Cc1cc(C(=O)NCc2ccccc2Br)no1
 : 0.8 | 0.0 | -5 | 7.1%[38.3 µM] | -4 | -5% | 2.6%
54. O=C(c1ccccc1)N1CCN(CC(O)COCC2CC=CCC2)CC1 (configuration not stated)
 : 1.8 | -0.2 | -2 | 2.9% | -2 | 14% | 0.7%
55. CN(C)c1ccc(NC(=S)Nc2ccc3c(c2)c(=O)n(C)n3-c2ccc(C(C)(C)C)cc2)cc1
 : / | -0.9 | / | 3.5% | / | / | -3.0%
56. CC1CCN(CCC(=O)Nc2ccc(F)c(F)c2)CC1
 : -7.0 | / | / | 1.7% | 1 | 10% | -2.9%
57. CCN1C(=S)SC(=O)C1=C1C=C(C)N(CCOC)C(C)=C1
 : ? | / | / | / | 1 | 50µM* | /

Screening data deposited in PubChem by National Center for Advancing Translational Sciences (NCATS).

No enrichment for hits; about 4.4% have a hit in one of these screens.
